Assay outcomes as filed in PubChem.
Rce1 inh: yeast Ras-converting enzyme inhibition | calls only | AID 2563 | yeast membranes, quenched prenylated peptide cleavage fluorescence | 290,000 tested, 0.27% active | Q03530;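 active means fall in fluorescence gain of 50% or more versus controls, with final raw signal at or below 3038400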;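 further: plate controls were neutral control wells for no effect and wells lacking membranes for full effect; tested at 10 µM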
Target sequence (Q03530 whole entry, looked up): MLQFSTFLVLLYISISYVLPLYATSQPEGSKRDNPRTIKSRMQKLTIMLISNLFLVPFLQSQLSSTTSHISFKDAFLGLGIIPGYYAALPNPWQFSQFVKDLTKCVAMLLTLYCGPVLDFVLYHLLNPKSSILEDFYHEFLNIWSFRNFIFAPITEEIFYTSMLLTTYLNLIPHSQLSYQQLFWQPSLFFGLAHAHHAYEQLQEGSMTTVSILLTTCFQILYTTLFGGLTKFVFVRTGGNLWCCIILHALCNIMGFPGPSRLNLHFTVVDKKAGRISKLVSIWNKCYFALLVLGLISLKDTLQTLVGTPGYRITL
MT1-MMP act inh: MT1-MMP (human) activation inhibition. P50281. 360,000 tested, 0.061% active. GFP/RFP ratio change, % at 20 µM. HT1080 RFP-PRO-GFP cells, GFP/RFP ratio fluorescence, overnight; percent of plate control window, DMSO zero;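 active means GFP/RFP ratio change of at least 30% with cell ATP level not reduced by more than half and red fluorescence within 50% of control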; further: strong numbers were not always called active
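system = RFP-PRO-GFP reporter HT1080 cells | dosing = 20 µM single dose, 1% DMSO | timing = overnight cell settling, then overnight compound exposure, 37 °C, 5% CO2 | read-out basis = GFP/RFP fluorescence ratio | controls = DMSO and RFP-L50D-GFP cell wells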
UUG fidelity: yeast start codon fidelity modulation; S. cerevisiae UUG-firefly luciferase reporter, luminescence/redox ratio; 350,000 tested, 0.13% active; activity score, % at 18.7 µM; AID 602363;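 active means replicate mean at a twofold rise or more, about +100% in these data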;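 further: firefly luciferase made from a UUG start codon reports start codon fidelity; reporter light over untreated wells divided by growth signal over untreated wells; some hits fall short of that in this replicate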
CSC inhib: cancer stem cell inhibition. cancer stem cell-like cells viability, luminescence. inhibition, % at 7.5 µM. 300,000 tested, 1.1% active;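 active means mean at 75% or more and at least half the replicates too; tested in HMLE shEcad cells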;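 further: 0% = median of negative and 100% = median of positive control wells; the first replicate is given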
Env fusion inh: inhibitors of HIV Env-mediated cell fusion; HeLa-JRFL Env/CEM21 cell fusion, luciferase; inhibition, % at 12.3 µM; 360,000 tested, 1.1% active; AID 651610;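 active means mean replicate inhibition score of at least 50 and every replicate individually at or above 50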;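 further: 0% = plate neutral controls and 100% = maraviroc near 300 nM; one replicate is shown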
eIF4H inh: inhibitors of RNA binding by human eIF4H | eIF4H fluorescence polarization binding assay | 290,000 tested, 0.94% active | AID 2012 | inhibition, % at 35 µM;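 active means 50% or more with normal probe brightness, or confirmed in later tests; about a fifth of its hits are not listed in these tables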;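 further: calls also rest on retests at 20 µM and on dose response follow-up; 0% = protein and probe with vehicle and 100% = probe without protein; strong numbers were not always called active; many hits fall short of the cut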
PABP FP inh: blocks human PABP binding to poly(A) RNA. P11940. fluorescence polarization. inhibition, % at 35 µM. 290,000 tested, 1% active;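 active means 50% or more with normal probe brightness, or confirmed in later tests; about a fifth of its hits are not listed in these tables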;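 further: calls also rest on retests at 20 µM and on dose response follow-up; controls were probe without protein and protein plus probe with vehicle; some compounds called inactive have numbers as strong as hits; many hits fall short of the cut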
Target sequence (P11940 whole entry, looked up): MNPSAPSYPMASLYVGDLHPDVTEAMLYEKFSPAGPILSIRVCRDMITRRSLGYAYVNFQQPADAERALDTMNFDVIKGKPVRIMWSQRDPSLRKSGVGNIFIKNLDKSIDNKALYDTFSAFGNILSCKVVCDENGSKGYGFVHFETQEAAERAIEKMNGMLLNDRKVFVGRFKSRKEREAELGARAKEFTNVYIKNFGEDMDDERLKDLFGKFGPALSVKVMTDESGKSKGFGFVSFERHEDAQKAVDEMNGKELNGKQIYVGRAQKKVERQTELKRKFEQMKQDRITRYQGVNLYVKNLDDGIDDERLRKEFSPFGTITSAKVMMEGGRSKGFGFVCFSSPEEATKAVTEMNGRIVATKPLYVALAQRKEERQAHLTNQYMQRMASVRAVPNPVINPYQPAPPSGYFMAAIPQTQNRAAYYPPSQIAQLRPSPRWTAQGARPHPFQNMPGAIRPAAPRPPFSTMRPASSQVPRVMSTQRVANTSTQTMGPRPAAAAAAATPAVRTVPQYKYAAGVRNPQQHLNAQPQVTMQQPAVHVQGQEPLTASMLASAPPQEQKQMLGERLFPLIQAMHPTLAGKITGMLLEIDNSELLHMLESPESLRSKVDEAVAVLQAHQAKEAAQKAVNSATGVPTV
eIF4H inh retest: recorded beside eIF4H inh, whose call it bears; inhibition, %; compound at 20 µM; confirmation average;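 mean of two retest wells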
PABP FP inh retest: also measured in PABP FP inh; calls as there; inhibition, %; compound at 20 µM; confirmation repeats;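 mean of two retest wells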
MT1-MMP act inh RFP: second read-out of MT1-MMP act inh, no call of its own (marks repeat the call); RFP signal change, %; measured here: RFP expression control read;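 0 = vehicle wells; hits needed this value within 50% of zero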
* hit, by the source's call; i = inactive; x = no result given; & = joins results of further samples; [ ] = another dose, or the depositor's remark. No enrichment for hits (roughly 2.9% active in at least one column).

SMILES	Rce1 inh	MT1-MMP act inh	MT1-MMP act inh RFP	UUG fidelity	CSC inhib	Env fusion inh	eIF4H inh	PABP FP inh	others
COc1ccc(C(C(=O)NCc2ccccc2)N(Cc2ccco2)C(=O)c2snc(C(N)=O)c2N)cc1 (stereo unspecified)	i	-4.4	-2.0	-10.6	x	17.3	-1.3	6.3
O=C(CCN1C(=O)/C(=C/c2ccc(F)cc2)SC1=S)NCCc1ccc(O)cc1	i	5.3	-0.7	-10.8	52.7	0.2	x	x
CC(NC(=O)c1cccc(F)c1)C(c1cccs1)N1CCN(C)CC1 (stereo unspecified)	i	-8.4	-1.9	-15.1	-2.0	x	-3.9	-0.3
C[C@@H]1CN([C@@H](C)CO)C(=O)c2cc(Br)cnc2O[C@H]1CN(C)C(=O)Cc1cccnc1	x	5.2	11.2	-4.0&-9.9	x	1.8	x	x
CCN(CC(=O)NCc1cccs1)C(=O)c1cccc(S(=O)(=O)N2CC(C)OC(C)C2)c1 (stereo unspecified)	x	0.4	3.8	-10.9	-4.1	x	x	x
CC(=O)N1CCCc2cc(S(=O)(=O)N3CCCC(C(=O)Nc4cc(C)ccc4C)C3)ccc21 (stereo unspecified)	i	6.0	-7.2	-6.9	-15.1	3.6	x	x
Cc1ccc(Nc2nc(N)c([N+](=O)[O-])c(N3CCC(C)CC3)n2)cc1C	i	-4.6	-10.4	-3.8	85.5*	-1.4	10.3	45.1
CC1=CC(C)C(C[N+]2(C)CCCCC2)C(C)C1 (stereo unspecified)	i	1.0	4.5	x	1.7	2.3	8.7	61.2*
COC(=O)Cc1c(C)nc2nc(NCc3cccc([N+](=O)[O-])c3)[nH]n2c1=O	i	-1.1	0.5	-13.8	-7.6	-27.3	-5.4	-8.4
CNC(=O)C(NC(=O)CNC(=O)c1ccc(Cl)cc1)C(C)(C)C (stereo unspecified)	i	-1.3	1.3	-1.8	-3.2	-6.5	6.8	6.8
O=C1N[C@H]2CC=C[C@H]2Nc2ccccc21	x	1.6	3.9	-5.6	x	26.3	x	x
CCCCN(CCCC)CCNC(=O)CSCc1ccc(C)cc1	i	3.1	1.4	-11.7	5.6	-5.6	-9.3	-4.4
Cc1ccc2nc(-c3ccc(NC(=O)COC(=O)c4ccc([N+](=O)[O-])o4)cc3)sc2c1	i	3.9	1.5	x	15.1	x	-8.2	2.9
O=C(N/N=C1\CCCc2c1[nH]c1ccc([N+](=O)[O-])cc21)c1ccncc1	i	x	x	x	-13.3	x	13.4	-7.4
COC(=O)N/N=C(\C)c1ccccc1OC(F)F	i	2.3	-0.8	-9.2	5.4	x	0.6	0.0
Cc1cc2ncn(/N=C/c3ccc([N+](=O)[O-])s3)c2cc1C	i	-1.6	-14.5	x	18.9	3.4	-17.3	2.6
Cc1noc(C)c1NC(=O)Nc1cccc2c1O[C@H](CN(C)S(C)(=O)=O)[C@@H](C)CN([C@H](C)CO)C2=O	x	0.7	3.0	-2.0&0.6	x	1.8[16.7 µM]	x	x
N#Cc1ccc(C(c2nnnn2CCc2ccccc2)N2CCCCCC2)cc1 (stereo unspecified)	i	-15.7	-14.5	6.4	9.6	90.5*	2.1	10.0
COc1cc(OC)c2c(-c3cccc(-c4cccc(N)c4)c3)cc(=O)oc2c1	x	0.5	-11.9	-40.3	x	-207.9	x	x
COc1ccc(-n2nc(C)cc2Nc2ccccc2C(=O)O)cc1	i	0.0	-2.0	x	3.7	10.0	-7.2	20.2
O=C1CC(N2CCN(C(c3ccccc3)c3ccccc3)CC2)C(=O)N1 (stereo unspecified)	i	-0.2	3.9	-8.5	-9.3	x	1.8	6.0
O=C(CSc1nncs1)NCCNC(=O)CSc1nncs1	x	0.5	0.8	x	-1.8	3.2	x	x
CCCN1CCN(S(=O)(=O)c2cn(C)nc2C)CC1	i	-3.0	4.1	-11.3	-1.0	x	68.7	37.7*	eIF4H inh retest=38.7;PABP FP inh retest=85.9*
CC[C@H](C)[C@H](NC(=O)OCc1ccccc1)C(=O)OCC(=O)Nc1ccc(N2CCOCC2)cc1	i	-0.7	1.4	x	-7.8	-0.4	x	x
O=C(NCCC1=CCCCC1)c1cc(S(=O)(=O)N2CCOCC2)ccc1Cl	i	6.6	0.5	x	x	36.0	x	x

Next section
SMILES	Rce1 inh	MT1-MMP act inh	MT1-MMP act inh RFP	UUG fidelity	CSC inhib	Env fusion inh	eIF4H inh	PABP FP inh	others
c1ccc(CNc2nc(NCc3cccs3)nc3ccsc23)cc1	x	-3.5	-14.7	-8.3	x	-2.6	x	x
COC(=O)CSc1nnc(NC(=O)c2ccc3c(c2)OCO3)s1	i	-1.7	3.2	-18.2	-8.1	-11.6	-9.5	2.5
O=C1Nc2c(Br)cccc2C1=O	x	-2.1	7.0	4.4	-9.4	6.4	x	x
Cn1ccnc1SCC(=O)Nc1ccc2c(c1)COC2=O	i	0.9	1.6	-17.6	-5.8	x	17.1	4.5
O=C(COC(=O)c1ccc([N+](=O)[O-])o1)NC1CCS(=O)(=O)C1 (stereo unspecified)	i	2.9	0.9	x	-7.9	13.8	-6.4	-4.7
COc1ccccc1NC(=S)N(Cc1ccco1)Cc1cc2cc(C)ccc2[nH]c1=O	i	-13.5	-16.9	x	49.6	x	-8.6	-11.7
COc1ccc(C)cc1NC(=O)CN(C)C1CCCCC1	i	4.6	3.3	-4.5	-7.4	8.3	0.2	1.6
CCc1ccc2[nH]c(O)c(N=Nc3nc(-c4ccccc4)cs3)c2c1	i	4.8	3.2	x	45.1	x	50.9	12.0	eIF4H inh retest=13.6;PABP FP inh retest=42.6
O=C(Nc1nc2c(s1)CCCC2)C1CCCN1C(=O)c1cccs1 (stereo unspecified)	i	-2.7	-4.6	-6.2	-2.5	-34.3	-7.0	37.7
Clc1ccc(-c2noc(CN(Cc3ccccn3)CC3CCCO3)n2)cc1 (stereo unspecified)	i	-2.1	-4.0	x	2.8	25.2	5.9	35.4
O=C(NCC(c1cccs1)N1CCOCC1)c1ccc(OCc2ccccc2)cc1 (stereo unspecified)	x	2.8	-5.1	10.3	-1.7	-9.9	x	x
O=C(Oc1cccc(OC(=O)c2ccco2)c1)c1ccco1	i	-3.0	-2.7	-14.3	3.4	-3.5	-8.4	6.5
O=C1CC(Sc2cccs2)C(=O)N1c1ccccc1 (stereo unspecified)	i	-5.2	3.4	x	8.2	12.2	10.7	-1.8
CC(C)(C)n1ncc2c(=O)n(Cc3ccccc3Br)cnc21	x	2.1	-12.8	-11.6	-18.2	0.8	x	x
Cc1ccc(N(CC(=O)NC2CCCCCC2)S(=O)(=O)c2c(C)nn(C)c2C)cc1	i	-9.9	-2.0	1.4	18.1	-4.5	1.9	-9.3
CN(C)CCCNC(=O)CCc1nc2ccccc2c(=O)[nH]1	i	-1.1	5.3	x	-5.7	x	-3.9	-5.5
Cc1c(C(=O)N/N=C/c2ccncc2)nnn1-c1nonc1N	x	0.0	4.7	-17.3	x	-37.4	x	x
COc1ccc2nc(C)cc(SCC(=O)Nc3c(C)cccc3C)c2c1	i	2.7	-6.6	x	-20.3	8.5	-10.0	-2.1
CCc1ccc2[nH]c(=O)c(CN(CCCN3CCOCC3)C(=O)Nc3ccc(F)cc3)cc2c1	i	0.8	-0.2	-13.0	-28.6	x	-6.0	-6.0
COc1cc(C2C3=C(CCCC3=O)Nc3ccc4ncccc4c32)ccc1O (stereo unspecified)	i	-9.7	-11.6	x	33.5	-53.8	8.3	9.3
COc1ccc(CC(=O)N/N=C(\C)CC(=O)Nc2ccc3c(c2)OCCO3)cc1	i	-1.8	-0.3	-7.2	x	10.0	-1.4	-6.4
C/C(NC1CCCCC1)=C(/C#N)C(=O)NCCN1CCOCC1	i	0.5	5.0	-15.0	2.7	x	7.4	-1.1
CCCCC(=O)Nc1cnc(NC(=O)c2ccco2)cc1C	i	-1.9	-0.4	4.2	-3.5	-6.3	0.7	3.5
Fc1cccc(F)c1/C=N/NC(=S)Nc1cccnc1	x	-1.1	1.1	x	-11.4	13.6	-2.4	4.9
O=C(NCc1ccccc1Cl)c1csc([C@@H]2C[C@H](O)[C@@H](CO)O2)n1	x	0.2	2.9	2.2	x	-19.9	x	x

Random excerpt: 2 entries already listed
SMILES	Rce1 inh	MT1-MMP act inh	MT1-MMP act inh RFP	UUG fidelity	CSC inhib	Env fusion inh	eIF4H inh	PABP FP inh	others
O=C(COC(=O)c1ccc([N+](=O)[O-])o1)NC1CCS(=O)(=O)C1 (stereo unspecified)	i	2.9	0.9	x	-7.9	13.8	-6.4	-4.7
Cn1ccnc1SCC(=O)Nc1ccc2c(c1)COC2=O	i	0.9	1.6	-17.6	-5.8	x	17.1	4.5

Next entries.
SMILES	Rce1 inh	MT1-MMP act inh	MT1-MMP act inh RFP	UUG fidelity	CSC inhib	Env fusion inh	eIF4H inh	PABP FP inh	others
COc1cc(C(=O)Nc2nnc(SC)s2)c([N+](=O)[O-])cc1OC	i	1.5	1.7	x	-13.1	7.7	-4.4	-9.7
O=S(=O)(c1cccs1)N1CCN(CC(O)COc2cccc(Br)c2)CC1 (stereo unspecified)	i	0.6	-9.1	-9.0	-2.8	18.3	-5.1	10.5
COc1cc(/C=C2\CCCc3c2nc2ccccc2c3C(=O)O)cc(OC)c1O	i	2.6	5.1	-12.1	-11.8	-11.0	29.1	28.6
CC(=O)OC[C@@H]1CN(Cc2ccccc2)C[C@H](n2cnc3c(Nc4ccccc4)ncnc32)O1	x	5.0	3.5	-32.9	x	-30.1	x	x
CCCNc1ncnc2nc[nH]c12	i	2.1	3.1	-4.4	-1.7	10.0	3.7	-10.6
Cc1nc2c(nnn2Cc2ccccc2)c(=O)[nH]1	i	-3.2	1.7	-4.2	7.3	13.0	52.0	12.5	eIF4H inh retest=4.2;PABP FP inh retest=0.2

Gathered by group, the compounds so far containing an aryl methoxy group (ten)
SMILES	Rce1 inh	MT1-MMP act inh	MT1-MMP act inh RFP	UUG fidelity	CSC inhib	Env fusion inh	eIF4H inh	PABP FP inh	others
COc1ccc(C(C(=O)NCc2ccccc2)N(Cc2ccco2)C(=O)c2snc(C(N)=O)c2N)cc1 (stereo unspecified)	i	-4.4	-2.0	-10.6	x	17.3	-1.3	6.3
COc1cc(OC)c2c(-c3cccc(-c4cccc(N)c4)c3)cc(=O)oc2c1	x	0.5	-11.9	-40.3	x	-207.9	x	x
COc1ccc(-n2nc(C)cc2Nc2ccccc2C(=O)O)cc1	i	0.0	-2.0	x	3.7	10.0	-7.2	20.2
COc1ccccc1NC(=S)N(Cc1ccco1)Cc1cc2cc(C)ccc2[nH]c1=O	i	-13.5	-16.9	x	49.6	x	-8.6	-11.7
COc1ccc(C)cc1NC(=O)CN(C)C1CCCCC1	i	4.6	3.3	-4.5	-7.4	8.3	0.2	1.6
COc1ccc2nc(C)cc(SCC(=O)Nc3c(C)cccc3C)c2c1	i	2.7	-6.6	x	-20.3	8.5	-10.0	-2.1
COc1cc(C2C3=C(CCCC3=O)Nc3ccc4ncccc4c32)ccc1O (stereo unspecified)	i	-9.7	-11.6	x	33.5	-53.8	8.3	9.3
COc1ccc(CC(=O)N/N=C(\C)CC(=O)Nc2ccc3c(c2)OCCO3)cc1	i	-1.8	-0.3	-7.2	x	10.0	-1.4	-6.4
COc1cc(C(=O)Nc2nnc(SC)s2)c([N+](=O)[O-])cc1OC	i	1.5	1.7	x	-13.1	7.7	-4.4	-9.7
COc1cc(/C=C2\CCCc3c2nc2ccccc2c3C(=O)O)cc(OC)c1O	i	2.6	5.1	-12.1	-11.8	-11.0	29.1	28.6
